Screening results as filed in PubChem BioAssay.
NPYLR7 agonist – mosquito NPYLR7 agonism. HEK293T NPYLR7/Galpha15, GCaMP6s calcium fluorescence. activation, % at 10 µM. 270,000 tested, 0.15% active; in the data active = activation above about 40%;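 also: 0% = vehicle and 100% = reference agonist at the receptor; some compounds past the cut are filed as inactive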
NPYLR7 agonist max-min – also measured in NPYLR7 agonist; calls as there; activation, %; measured here: Max-Min RFU normalised activation; some inactives read as strong as hits;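 span of the calcium signal over five minutes; 0% = vehicle and 100% = native peptide agonist; compound fluorescence can raise it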
* = called active by the depositor. Only part of the results is shown, so the mix of outcomes need not match the whole.

The first 3 records (preview)
SMILES	NPYLR7 agonist	NPYLR7 agonist max-min
COc1ccc(-c2nc3ccccn3c2NC(=O)CC(C)C)cc1	-2.9	3.2
CC(=O)Nc1ccc(Nc2cc(C(C)(C)C)nc3c(-c4ccccc4)c(C)nn23)cc1	-0.8	25.7
CCn1cc(C(CC(=O)NCCCN2CCOCC2)c2ccc(F)cc2)c2ccccc21 (stereo not drawn)	-1.4	-0.6

All compounds of this part, previewed entries included:
SMILES	NPYLR7 agonist	NPYLR7 agonist max-min
COc1ccc(-c2nc3ccccn3c2NC(=O)CC(C)C)cc1	-2.9	3.2
CC(=O)Nc1ccc(Nc2cc(C(C)(C)C)nc3c(-c4ccccc4)c(C)nn23)cc1	-0.8	25.7
CCn1cc(C(CC(=O)NCCCN2CCOCC2)c2ccc(F)cc2)c2ccccc21 (stereo not drawn)	-1.4	-0.6
Cc1cc(C(=O)N2CCN(CCCOC(c3ccc(Cl)cc3)c3ccc(Cl)cc3)CC2)no1	13.9	12.0
CCc1cc2c(=O)n(Cc3ccco3)c(SCC(=O)NC3CCCCC3)nc2s1	-10.6	-7.2
CCOC(=O)c1c(C)[nH]c(C(=O)COC(=O)c2ccc(N3CCCCC3)c([N+](=O)[O-])c2)c1C	-3.9	-10.2
NC(=O)c1ccc(CSc2ncccc2C(=O)N2CCSCC2)cc1	1.6	2.2
O=C1/C(=C/c2ccc([N+](=O)[O-])cc2)C=C(c2ccccc2)N1c1ccc(Cl)cc1Cl	-1.2	6.0
O=C(c1ccc(F)cc1)C1CCN(CCn2c(=S)[nH]c3ccccc3c2=O)CC1	-4.6	-7.1
COc1ccc(-c2nccnc2NCc2ccc(OC(F)(F)F)cc2)cc1	-8.6	-10.4
Cc1ccc(N2CC(C)Cn3c2nc2c3c(=O)n(CCCO)c(=O)n2C)cc1 (stereo not drawn)	6.9	3.1
Cc1cc(NC(=O)CSc2nc(=O)n(N3CCN(C)CC3)c3c2CCCC3)no1	-4.3	-10.0
CN(CC1CCN(CCc2ccc(Cl)cc2)CC1)C(=O)C1CC=CCC1 (stereo not drawn)	6.7	4.5
CCSc1ccccc1C(=O)Nc1c2c(nn1CC(=O)NCC1CCCO1)CSC2 (stereo not drawn)	0.8	7.8
Cc1cccc(C2=NC(=Cc3cnn(C)c3)C(=O)O2)c1	11.7	15.3
Fc1ccc(N2CCN(Cc3nc(-c4ccc(Cl)cc4)no3)CC2)cc1	16.6	7.5
CCNC(=O)c1c(C)nn(-c2cccc(Cl)c2)c1C	0.0	7.3
CC1(C(=O)Nc2cccc3c2CCCC3)CCN1C(=O)c1cccc(F)c1 (stereo not drawn)	1.7	-0.4
O=C(O)c1nn(CC2CC2)c2c1CN(C(=O)c1cccc3cccnc13)CC2	28.9	14.0
O=C(c1cc(-c2cccs2)nn1-c1cccc(Cl)c1)N1CCN(c2cccc(Cl)c2)CC1	19.8	15.6

Molecules listed so far that contain an aryl methoxy group (two):
SMILES	NPYLR7 agonist	NPYLR7 agonist max-min
COc1ccc(-c2nc3ccccn3c2NC(=O)CC(C)C)cc1	-2.9	3.2
COc1ccc(-c2nccnc2NCc2ccc(OC(F)(F)F)cc2)cc1	-8.6	-10.4

Further compounds follow.
SMILES	NPYLR7 agonist	NPYLR7 agonist max-min
COc1cccc(-n2ccn3c(C(C)C)nnc3c2=O)c1	-17.8	-21.9
O=C(c1ccccc1)c1c(Nc2ccc(F)cc2)[nH]c(=O)c2ccccc12	-0.5	-0.5
COCCCN(CC(=O)N(Cc1ccc2c(c1)OCO2)Cc1cccs1)C(=O)Nc1ccc(OC)cc1OC	9.7	6.8
Cc1noc(C(NS(=O)(=O)/C=C/c2ccccc2)C(C)C)n1 (stereo not drawn)	7.1	4.8
Cc1nc(CN2CCN(C(=O)c3cn(Cc4ccccc4Cl)nn3)CC2)cs1	5.7	0.9
O=C(CC(=O)NC12CC3CC(CC(C3)C1)C2)NCC1CC(=O)N(C2CC2)C1 (stereo not drawn)	8.2	3.8
Cc1ccc(-c2nc(CN3CCNC(=O)C3Cc3ccccc3)c(C)o2)s1 (stereo not drawn)	26.7	9.9
CC(C)C(C(=O)NC1CCc2[nH]c3cc(Cl)cc(Cl)c3c2C1)c1ccccc1 (stereo not drawn)	31.5	21.7
CN(Cc1ccc(C(N)=O)cc1)C(=O)Cc1ccccc1Cl	-0.8	-1.4
Cc1ccc(C(=O)N(C)C)cc1NCC(=O)N1CCCCCCC1	9.0	6.6
O=C(NNc1ncccn1)C1(c2ccc3c(c2)OCO3)CCCCC1	1.3	6.4
CCCCc1ccc(C(=O)Nc2nnc(SCC(=O)OCC)s2)cc1	-2.4	4.7
COCc1cnc2c(c1SCC(=O)Nc1ccc(C)cc1C)c(=O)n(C)c(=O)n2C	3.9	9.4
CN(C)C(=O)CCCC(=O)NC1(c2ccc(F)cc2)CCOCC1	-2.5	-4.1
CN(CC(COc1cccc2ccccc12)OC(=O)c1ccccc1Br)C1=NS(=O)(=O)c2ccccc21 (stereo not drawn)	-4.5	-14.5
CC(C)CCCC1CN(C(=O)c2ccccc2N2CCOCC2)CCO1 (stereo not drawn)	15.3	8.3
COc1cc(C(=O)Nc2c(C)nn(C)c2C)ccc1OCc1cscn1	12.0	7.7
CCC(NC(=O)Nc1ccc(-n2cncn2)nc1)c1ccc(C)cc1 (stereo not drawn)	1.6	-0.9
COc1ccc(N(C)S(=O)(=O)c2ccc(OC)c(N3CCN(C(=O)c4cccc5ccccc45)CC3)c2)cc1	24.1	12.2
CCCSCC(=O)Nc1ccc(F)cc1NC1CC1	-4.0	-10.5
O=C(Cc1cccc(F)c1)NCc1cccc(-n2cccn2)c1	-2.0	-3.8
COc1cn(CC(=O)Nc2cccc3ccccc23)c(CSc2ncccn2)cc1=O	-4.0	-7.8
CC1Cc2ccccc2N1C(=O)CSc1nnc(-c2cccs2)o1 (stereo not drawn)	3.0	4.4
CCC1CN(C(=O)C2(C(=O)NC)CCC2)CCN1CCOC (stereo not drawn)	-1.1	-2.0
CN=C(N)SC	-2.0	-3.6
CCCCN1CC(c2nc3ccccc3n2CCCOc2ccccc2)CC1=O (stereo not drawn)	1.6	-2.5
CS(=O)(=O)NCCS(=O)(=O)N1CCN(c2ccccc2)CC1	4.3	1.9
CC1(C(=O)NS(=O)(=O)c2ccc(Cl)cc2)CCN1C(=O)CCC1CCCC1 (stereo not drawn)	4.1	4.0
CCN(NC(=O)CCS(=O)(=O)C1CCCC1)c1ccc(C)cc1	8.6	4.6
CSc1ncc(CN2CCN(CC3CCCCC3)C(CCO)C2)cn1 (stereo not drawn)	5.5	1.4
CCC(C)N(CC(=O)N(CCc1ccc(OC)c(OC)c1)Cc1ccc(C)o1)C(=O)NC(C)(C)C (stereo not drawn)	-2.6	-1.9
CCCc1noc2nc(-c3ccco3)cc(C(=O)O)c12	0.5	1.4
COC(=O)CN1C(=O)CC1SC(c1ccccc1)(c1ccccc1)c1ccccc1 (stereo not drawn)	-4.0	-7.7
CCCc1cc(C(=O)N2CCC3(CC2)CC3C(=O)NCCc2cccc(OC)c2)no1 (stereo not drawn)	32.4	28.1
Cc1cc(C(=O)N2CCC2(C)C(=O)NS(=O)(=O)c2ccc(Br)cc2)nn1C (stereo not drawn)	4.1	3.9
Cc1cc(Cl)cc2c3c([nH]c12)CCC(NC(=O)C1CCCO1)C3 (stereo not drawn)	28.0	16.5
CS(=O)(=O)c1ccc(Nc2nc(C(=O)NCc3ccncc3)cs2)cc1	10.0	1.1
O=C(CC1=CCCCC1)N1CCCC(Nc2ccc3c(c2)OCCO3)C1 (stereo not drawn)	7.1	6.0
O=C(Cc1cccnc1)N1CCC(Cc2n[nH]c(=O)n2-c2ccccc2)CC1	7.0	6.9
Cc1cc(C)nc(SCc2cc(=O)c(OC(=O)c3ccc(OC(C)C)cc3)co2)n1	-13.8	-6.9

Exported with values under each structure: three of the compounds above.
Below each SMILES – NPYLR7 agonist, NPYLR7 agonist max-min
O=C(Cc1cccc(F)c1)NCc1cccc(-n2cccn2)c1
 : -2.0, -3.8
CS(=O)(=O)c1ccc(Nc2nc(C(=O)NCc3ccncc3)cs2)cc1
 : 10.0, 1.1
CN=C(N)SC
 : -2.0, -3.6

Other results
SMILES	NPYLR7 agonist	NPYLR7 agonist max-min
O=c1[nH]c(O)c(C=Nc2nc3ccccc3nc2N2CCCC2)c(=O)[nH]1	9.7	7.3
CN1CCN(c2nc3ccccc3nc2NS(=O)(=O)c2cc(Cl)ccc2Cl)CC1	0.3	6.9
Cc1cc(NC(=O)C2CCCN(C(=O)c3ccc(Cl)cc3)C2)no1 (stereo not drawn)	-2.8	-2.1
CCOC(=O)CC(C)SCc1cn2ccsc2n1 (stereo not drawn)	8.8	5.9
CCCc1nc2ccccc2n1CC(=O)NCc1ccccc1F	2.0	0.9
O=C(c1n[nH]c2c1CCCC2)N(CC1CCN(C2CCCC2)CC1)CC1CCCO1 (stereo not drawn)	11.8	1.2
CN1CCc2[nH]nc(C(=O)N3CCN4CCN(C)CC4C3)c2C1 (stereo not drawn)	3.1	0.7
C=CCN(Cc1nccn1Cc1ccccc1F)C(=O)C1CC1	3.0	5.6
CCCCOc1ccc(-c2cc3c(=O)n(Cc4nc(-c5ccccc5)no4)ccn3n2)cc1	-3.2	-9.8
CN(Cc1ccc(O)cc1)C(=O)CNS(=O)(=O)c1ccc(Cl)s1	-5.5	-7.0
CC(=O)Nc1ccc(-c2ccc(C)cc2-n2nc(C)cc2C)cn1	5.1	3.1
CCS(=O)(=O)CC(C)NC(=O)N1CCc2c(F)ccc(F)c2C1 (stereo not drawn)	-20.9	-24.1
Cc1ccc(Cl)c(OC(=O)c2ccc(Sc3nncn3C)c([N+](=O)[O-])c2)c1	-0.4	0.9
COc1ccc(-c2cc(CNC(=O)CC3CCCC3)no2)cc1OC	1.0	-0.2
CCOc1cc(C=NNC(=O)c2[nH]nc(-c3ccccc3)c2C)ccc1O	-0.4	-3.0
CN1CCC2(CCN(C(=O)C(c3ccccc3)n3cccc3)CC2)C1=O (stereo not drawn)	4.4	8.1
COc1ccccc1/C=C1/SC(=S)N(C(C)C(=O)O)C1=O (stereo not drawn)	-4.3	-10.1
Cc1cccc(NC(=O)c2c(-c3ccccc3Cl)noc2C)n1	5.1	5.7
O=C(Nc1ccc2c(c1)C(=O)c1ccccc1C2=O)c1ccc(F)cc1	-12.9	-17.6
Cc1nc(-c2ccccc2)n(C/C=C/c2ccccc2)n1	0.2	-2.4
CC1CNC(=O)CCN1C(=O)CN1CCNCC1 (stereo not drawn)	-6.0	-8.6
C=CCC1SC(=NN=Cc2cccs2)NC1=O (stereo not drawn)	-1.6	4.2
O=C(NCC(F)(F)C(F)(F)C(F)(F)F)c1cncn1-c1cccc(-c2ccc(Oc3ccccc3)cc2)c1	4.2	2.1
CC(C)Oc1ncccc1CNC(=O)c1ccc(Br)o1	-0.7	-2.2
Cc1ccnc(SCCn2c(N3CC(C)CC(C)C3)nc3c2c(=O)n(C)c(=O)n3C)n1 (stereo not drawn)	-0.2	31.9
O=C(NCc1ccccc1S(=O)(=O)N1CCCCC1)c1cc(F)cc(F)c1	1.8	4.9
O=C(C1=C(O)C(=O)N(CCN2CCOCC2)C1c1ccc(F)cc1)c1ccco1 (stereo not drawn)	0.4	-1.6
CCN=c1scc(-c2ccccc2)n1N=C1CCC(C(C)(C)C)CC1 (stereo not drawn)	-0.7	-2.3
CC(=O)N1CCN(C(=O)c2csc(COc3cccc(F)c3)n2)CC1	0.4	-11.4
OCc1cc(Cl)cc(Cl)c1O	-6.2	-7.9
CC1CCN(C(=O)CSc2ccc(-c3ccc4c(c3)OCO4)nn2)CC1	2.5	2.3
Cc1nc(C)n(CCCNC(=O)Cc2c[nH]c3ccccc23)n1	-0.1	-0.8

5 of these compounds in a different format:
| SMILES | NPYLR7 agonist | NPYLR7 agonist max-min |
| --- | --- | --- |
| Cc1ccnc(SCCn2c(N3CC(C)CC(C)C3)nc3c2c(=O)n(C)c(=O)n3C)n1 (stereo not drawn) | -0.2 | 31.9 |
| O=C(NCc1ccccc1S(=O)(=O)N1CCCCC1)c1cc(F)cc(F)c1 | 1.8 | 4.9 |
| O=C(C1=C(O)C(=O)N(CCN2CCOCC2)C1c1ccc(F)cc1)c1ccco1 (stereo not drawn) | 0.4 | -1.6 |
| CCN=c1scc(-c2ccccc2)n1N=C1CCC(C(C)(C)C)CC1 (stereo not drawn) | -0.7 | -2.3 |
| CC(=O)N1CCN(C(=O)c2csc(COc3cccc(F)c3)n2)CC1 | 0.4 | -11.4 |
